# UUG fidelity – alters start codon recognition fidelity in yeast | S. cerevisiae UUG-firefly luciferase reporter, luminescence/redox ratio | activity score, % at 18.7 µM | 350,000 tested, 0.13% active;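 active = replicate mean at a twofold rise or more, about +100% in these data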;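 also: firefly luciferase made from a UUG start codon reports start codon fidelity; reporter light over untreated wells divided by growth signal over untreated wells; some hits fall short of that in this replicate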
# Env fusion inh – inhibitors of HIV Env-mediated cell fusion; inhibition, % at 12.3 µM; AID 651610; HeLa-JRFL Env/CEM21 cell fusion, luciferase; 360,000 tested, 1.1% active;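 active = mean replicate inhibition score of at least 50 and every replicate individually at or above 50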;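 also: 0% = plate neutral controls and 100% = maraviroc near 300 nM; one replicate is shown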
# An asterisk follows results filed as active; & = joins results of further samples; ! = repeats disagree; [ ] = another dose, or the depositor's remark.
molecule	UUG fidelity	Env fusion inh
C/C=C/c1ccc2c(c1)O[C@H](CN(C)Cc1cccnc1)[C@H](C)CN([C@@H](C)CO)S2(=O)=O	-5	-9[16.7 µM]
COc1ccccc1NC(=O)N(C)C[C@H]1Oc2ncc(C#CCC(C)C)cc2C(=O)N([C@@H](C)CO)C[C@H]1C	26	15[16.7 µM]
O=C(Nc1ccc(F)cc1)Nc1ccc2c(c1)[C@@H]1C[C@@H](CC(=O)N3CCOCC3)O[C@H](CO)[C@@H]1O2	6	13[16.7 µM]
CS(=O)(=O)N1[C@H](CO)[C@H](c2ccc(C#Cc3cccc(F)c3)cc2)[C@@H]1C#N	19	13[16.7 µM]
C[C@@H]1CN([C@@H](C)CO)C(=O)c2cc(C#CCc3ccccc3)cnc2O[C@@H]1CN(C)C(=O)C1CC1	-6	-13[16.7 µM]
C[C@@H]1CCCCO[C@@H](CN(C)C(=O)CCCN(C)C)[C@H](C)CN([C@H](C)CO)C(=O)c2cc(NC(=O)C3CCCCC3)ccc2O1	16	-12[16.7 µM]
O=C(C[C@H]1C[C@H]2c3cc(NC(=O)c4ccc5c(c4)OCO5)ccc3O[C@H]2[C@H](CO)O1)NCc1cccc(F)c1	-14	1[16.7 µM]
CCC(=O)Nc1ccc2c(c1)OC[C@@H](C)N(C(=O)NC(C)C)C[C@H](C)[C@@H](OC)CN(C)C2=O	-2	-7[16.7 µM]
O=C(C[C@@H]1C=C[C@H](NC(=O)C2CCC2)[C@H](CO)O1)NCc1ccncc1	2	4[16.7 µM]
CN(C)CC(=O)Nc1ccc2c(c1)[C@H]1C[C@H](CC(=O)NCCc3ccccc3)O[C@@H](CO)[C@H]1O2	5	38[16.7 µM]
CCC(=O)N(C)C[C@@H]1Oc2cc(-c3cncnc3)ccc2S(=O)(=O)N([C@H](C)CO)C[C@@H]1C	-3	-7[16.7 µM]
CC(C)NC(=O)N[C@H]1CC[C@H](CC(=O)NC2Cc3ccccc3C2)O[C@@H]1CO	7	10[16.7 µM]
COc1ccc(S(=O)(=O)Nc2ccc3c(c2)CC(=O)N([C@@H](C)CO)C[C@H](C)[C@@H](CN(C)C(=O)Nc2cccc4ccccc24)O3)cc1	3	16[16.7 µM]
Cc1noc(C)c1NC(=O)N(C)C[C@H]1Oc2cc(C#CCN(C)C)ccc2S(=O)(=O)N([C@@H](C)CO)C[C@H]1C	10	-16[16.7 µM]
C[C@@H]1CCCCO[C@H](CN(C)S(C)(=O)=O)[C@H](C)CN([C@@H](C)CO)C(=O)c2cc(N(C)C)ccc2O1	0	4[16.7 µM]
O=C(C[C@H]1C[C@@H]2c3cc(NC(=O)CC4CC4)ccc3O[C@@H]2[C@@H](CO)O1)NCc1ccccn1	-23	1[16.7 µM]
COc1cccc(CNC(=O)C[C@H]2CC[C@@H](NC(=O)C3CCC3)[C@H](CO)O2)c1	-7	8[16.7 µM]
NCCCCCNC(=O)[C@@H]1C[C@@H]2C(=O)NCC(=O)N2[C@@H]1c1cccc(OCCO)c1	2	-5[16.7 µM]
CCCN(C)C[C@H]1Oc2ncc(C#CCN(C)C)cc2C(=O)N([C@H](C)CO)C[C@H]1C	16	12[16.7 µM]
Cc1noc(C)c1S(=O)(=O)Nc1ccc2c(c1)C(=O)N([C@@H](C)CO)C[C@H](C)[C@H](CN(C)C(=O)Nc1cccc3ccccc13)OCCCC[C@H](C)O2	8	-24[16.7 µM]
CC(C)NC(=O)N(C)C[C@@H]1Oc2cc(-c3cccnc3)ccc2S(=O)(=O)N([C@@H](C)CO)C[C@H]1C	-7	22[16.7 µM]
COc1ccc(CN2C(=O)[C@@H]3[C@H]4C(=O)O[C@H](c5ccccc5)[C@@H](C)N(C)C(=O)CC/C=C/[C@H]4O[C@@]34C=CCN(Cc3ccccc3)C(=O)[C@@H]24)cc1	12*!	10&6[16.7 µM]
C[C@@H]1CCCCO[C@@H](CN(C)CC2CCCCC2)[C@H](C)CN([C@@H](C)CO)C(=O)c2cc(NC(=O)NC3CCCCC3)ccc2O1	-1	34[16.7 µM]
O=C(NCC(F)(F)F)[C@@H]1c2ccccc2C(=O)N(CC23CC4CC(CC(C4)C2)C3)[C@H]1c1ccc(CO)cc1	23	74*[16.7 µM]
Cc1ccc(S(=O)(=O)N[C@H]2CC[C@@H](CC(=O)NCc3ccncn3)O[C@@H]2CO)cc1	-6	15[16.7 µM]
Cc1noc(C)c1NC(=O)Nc1ccc2c(c1)C(=O)N([C@H](C)CO)C[C@@H](C)[C@H](CN(C)Cc1ccc(C(=O)O)cc1)OCCCC[C@@H](C)O2	-3	-12[16.7 µM]
Cc1ccc(S(=O)(=O)Nc2ccc3c(c2)C(=O)N([C@@H](C)CO)C[C@@H](C)[C@@H](CN(C)S(=O)(=O)c2cccs2)OCCCC[C@@H](C)O3)cc1	-2	-21[16.7 µM]
COc1ccc(NC(=O)N(C)C[C@H]2OCCCC[C@@H](C)Oc3ccc(NS(=O)(=O)c4cccs4)cc3C(=O)N([C@H](C)CO)C[C@H]2C)cc1	25	8[16.7 µM]
CO[C@@H]1CN(C)C(=O)c2cc(NS(=O)(=O)c3cccc(F)c3)ccc2OC[C@H](C)N(Cc2cc(F)ccc2F)C[C@@H]1C	24	-11[16.7 µM]
O=C(C[C@H]1CC[C@H](NS(=O)(=O)c2ccccc2)[C@H](CO)O1)NCc1ccc(Cl)c(Cl)c1	16	-10[16.7 µM]
C[C@@H]1CN([C@@H](C)CO)C(=O)c2cc(NS(=O)(=O)c3cccs3)ccc2O[C@@H](C)CCCCO[C@H]1CN(C)S(=O)(=O)c1cn(C)cn1	15	-18[16.7 µM]
Cc1noc(C)c1S(=O)(=O)Nc1ccc2c(c1)C(=O)N([C@H](C)CO)C[C@@H](C)[C@H](CN(C)Cc1ccccc1)OCCCC[C@@H](C)O2	15	-92[16.7 µM]
COc1ccc(CN(C)C[C@@H]2OCCCC[C@H](C)Oc3ccc(NS(=O)(=O)c4ccc(Cl)cc4)cc3C(=O)N([C@@H](C)CO)C[C@H]2C)cc1	20	4[16.7 µM]
C[C@@H]1CCCCO[C@@H](CN(C)C(=O)Nc2ccc(F)cc2)[C@H](C)CN([C@H](C)CO)C(=O)c2cc(NC(=O)c3ccncc3)ccc2O1	-1	-15[16.7 µM]
C[C@H](O)C#Cc1ccc2c(c1)O[C@H](CN(C)C(=O)c1ccccc1)[C@H](C)CN([C@H](C)CO)S2(=O)=O	-3	-2[16.7 µM]
CCCC#Cc1ccc2c(c1)O[C@@H](CN(C)C(C)=O)[C@@H](C)CN([C@H](C)CO)S2(=O)=O	11	-5[16.7 µM]
CC(=O)N(C)C[C@H]1Oc2cc(-c3ccccc3)ccc2S(=O)(=O)N([C@@H](C)CO)C[C@H]1C	-6	18[16.7 µM]
C[C@H]1CN([C@@H](C)CO)C(=O)Cc2cc(NS(C)(=O)=O)ccc2O[C@H]1CN(C)S(=O)(=O)c1ccc(F)cc1	-3	5[16.7 µM]
CN1C(=O)c2cc(NC(=O)Cc3ccccc3)ccc2OC[C@H]2O[C@@H](CC(=O)NCC3CC3)CC[C@@H]21	-1	-6[16.7 µM]
C[C@@H]1CCCCO[C@@H](CN(C)Cc2ccncc2)[C@H](C)CN([C@H](C)CO)C(=O)c2cc(NC(=O)C3CCCCC3)ccc2O1	22	-1[16.7 µM]
C[C@H]1CN([C@@H](C)CO)S(=O)(=O)c2ccc(-c3cccc(C#N)c3)cc2O[C@@H]1CN(C)Cc1cccc(F)c1	12	24[16.7 µM]
C[C@H]1CN([C@@H](C)CO)S(=O)(=O)c2ccc(C3=CCCC3)cc2O[C@H]1CN(C)C(=O)c1ccccn1	-13	-1[16.7 µM]
O=C(C[C@H]1CC[C@H](NC(=O)c2cccc(F)c2)[C@@H](CO)O1)NCc1ccc(Oc2ccccc2)cc1	-12	14[16.7 µM]
O=C(C[C@@H]1CC[C@@H]2[C@H](COC[C@@H](O)CN2CC2CCOCC2)O1)NCC1CC1	5	-4[16.7 µM]
CN1C(=O)c2cc(NC(=O)c3ccc4c(c3)OCO4)ccc2OC[C@H]2O[C@H](CC(=O)O)CC[C@@H]21	2	1[16.7 µM]
C[C@@H]1CN([C@@H](C)CO)C(=O)c2cc(NS(=O)(=O)c3ccc(Cl)cc3)ccc2O[C@@H](C)CCCCO[C@H]1CN(C)CC1CC1	14	-47[16.7 µM]
COc1cccc(CN(C)C[C@@H]2OCc3cn(nn3)CCCC(=O)N([C@H](C)CO)C[C@H]2C)c1	-5	2[16.7 µM]
[N-]=[N+]=Nc1ccccc1C[C@]1(C(=O)NCc2ccccc2)COC(c2ccc(OCCCO)cc2)=N1	13	-9[16.7 µM]
C[C@@H]1CN([C@H](C)CO)C(=O)c2cc(NS(=O)(=O)c3cn(C)cn3)ccc2O[C@H]1CN(C)S(=O)(=O)c1ccc(Cl)cc1	-10	7[16.7 µM]
C[C@@H]1CN([C@H](C)CO)C(=O)c2cc(NC(=O)Nc3ccc(C(F)(F)F)cc3)ccc2O[C@@H](C)CCCCO[C@H]1CN(C)S(=O)(=O)c1cccs1	6	20[16.7 µM]
C[C@H](CO)N1C[C@H](C)[C@H](CN(C)C(=O)Nc2ccc(C(F)(F)F)cc2)Oc2c(NC(=O)C3CCOCC3)cccc2C1=O	12	8[16.7 µM]
C/C=C/c1ccc2c(c1)O[C@@H](CN(C)C(=O)c1ccc3c(c1)OCO3)[C@H](C)CN([C@H](C)CO)S2(=O)=O	11	-13[16.7 µM]
CNC[C@H]1Oc2ccc(NS(=O)(=O)c3c(C)noc3C)cc2C(=O)N([C@H](C)CO)C[C@@H]1C	-7	12[16.7 µM]
C[C@@H]1CN([C@@H](C)CO)C(=O)Cc2cc(NC(=O)Cc3cn(C)c4ccccc34)ccc2O[C@@H]1CN(C)S(=O)(=O)c1cccs1	7	-31[16.7 µM]
COc1ccc(CN(C)C[C@H]2Oc3ccc(NS(=O)(=O)c4ccc(OC)cc4)cc3C(=O)N([C@@H](C)CO)C[C@@H]2C)cc1	7	20[16.7 µM]
O=C(Cc1ccccc1)N[C@H]1CC[C@H](CC(=O)N2CCOCC2)O[C@H]1CO	10	-13[16.7 µM]
C[C@H](CO)N1C[C@H](C)[C@H](CN(C)C(=O)Nc2ccccc2)Oc2ccc(NC(=O)Cn3cnnn3)cc2CC1=O	18	-68[16.7 µM]
CC(C)NC(=O)N[C@H]1CC[C@@H](CCNS(=O)(=O)c2ccc(Cl)cc2)O[C@@H]1CO	-24	-2[16.7 µM]
Cc1noc(C)c1NC(=O)N(C)C[C@@H]1Oc2ccc(NS(=O)(=O)c3ccc(Cl)cc3)cc2CC(=O)N([C@H](C)CO)C[C@@H]1C	18	6[16.7 µM]
COCC#Cc1cnc2c(c1)C(=O)N([C@H](C)CO)C[C@H](C)[C@H](CN(C)C(=O)Cc1ccncc1)O2	2	-18[16.7 µM]

# Printed as active in UUG fidelity, of those listed so far:
molecule	UUG fidelity	Env fusion inh
COc1ccc(CN2C(=O)[C@@H]3[C@H]4C(=O)O[C@H](c5ccccc5)[C@@H](C)N(C)C(=O)CC/C=C/[C@H]4O[C@@]34C=CCN(Cc3ccccc3)C(=O)[C@@H]24)cc1	12*!	10&6[16.7 µM]

# Single records, as listed above. Order of screens: UUG fidelity	Env fusion inh
# C/C=C/c1ccc2c(c1)O[C@@H](CN(C)C(=O)c1ccc3c(c1)OCO3)[C@H](C)CN([C@H](C)CO)S2(=O)=O is listed with 11	-13[16.7 µM]
# O=C(Cc1ccccc1)N[C@H]1CC[C@H](CC(=O)N2CCOCC2)O[C@H]1CO is listed with 10	-13[16.7 µM]
# COc1ccc(CN(C)C[C@H]2Oc3ccc(NS(=O)(=O)c4ccc(OC)cc4)cc3C(=O)N([C@@H](C)CO)C[C@@H]2C)cc1 is listed with 7	20[16.7 µM]
# COCC#Cc1cnc2c(c1)C(=O)N([C@H](C)CO)C[C@H](C)[C@H](CN(C)C(=O)Cc1ccncc1)O2 is listed with 2	-18[16.7 µM]
# C[C@@H]1CN([C@@H](C)CO)C(=O)Cc2cc(NC(=O)Cc3cn(C)c4ccccc34)ccc2O[C@@H]1CN(C)S(=O)(=O)c1cccs1 is listed with 7	-31[16.7 µM]

# New compounds follow.
molecule	UUG fidelity	Env fusion inh
C[C@H](CO)N1C[C@H](C)[C@H](CN(C)CC2CCCCC2)Oc2c(NC(=O)c3cnccn3)cccc2C1=O	-9	-10[16.7 µM]
COc1ccc(S(=O)(=O)Nc2ccc3c(c2)C(=O)N([C@@H](C)CO)C[C@@H](C)[C@H](CN(C)S(=O)(=O)c2ccc(OC)cc2)OCCCC[C@@H](C)O3)cc1	-12	-15[16.7 µM]
C[C@H]1CN([C@@H](C)CO)C(=O)Cc2cc(NC(=O)Nc3ccc4c(c3)OCO4)ccc2O[C@H]1CN(C)S(=O)(=O)c1cn(C)cn1	3	3[16.7 µM]
CNC[C@@H]1OCCCC[C@H](C)Oc2ccc(NC(=O)CCC(F)(F)F)cc2C(=O)N([C@H](C)CO)C[C@H]1C	1	16[16.7 µM]
C[C@H](CO)N1C[C@H](C)[C@@H](CN(C)C)Oc2ncc(C#CC3(O)CCCC3)cc2C1=O	10	1[16.7 µM]
COc1ccc(CN(C)C[C@@H]2OCCCC[C@@H](C)Oc3ccc(NC(=O)Nc4ccc(F)cc4)cc3C(=O)N([C@H](C)CO)C[C@H]2C)cc1	16	-33[16.7 µM]

# This is a subset; rates above refer to the full screens.
